KCNQ2 pot = enhances the rat KCNQ2 potassium channel | 310,000 compounds, 0.54% hits | O88943 | CHO-K1 KCNQ2, FluxOR thallium flux fluorescence; active compounds read high | B-score at 10 µM;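 active means fluorescence ratio B-score at least 3 SD of library B-scores, with initial fluorescence B-score within 3 SD, cut at about 5.3 in these data; same plate scores as AID 2156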;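 further: B-score of peak minus minimum over baseline fluorescence ratio after K+ and Tl+ stimulus; positive B-score means potentiation of KCNQ2 with more thallium influx and brighter signal; only the inactives scoring about 0 or higher are listed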
Target sequence (O88943 whole entry, looked up): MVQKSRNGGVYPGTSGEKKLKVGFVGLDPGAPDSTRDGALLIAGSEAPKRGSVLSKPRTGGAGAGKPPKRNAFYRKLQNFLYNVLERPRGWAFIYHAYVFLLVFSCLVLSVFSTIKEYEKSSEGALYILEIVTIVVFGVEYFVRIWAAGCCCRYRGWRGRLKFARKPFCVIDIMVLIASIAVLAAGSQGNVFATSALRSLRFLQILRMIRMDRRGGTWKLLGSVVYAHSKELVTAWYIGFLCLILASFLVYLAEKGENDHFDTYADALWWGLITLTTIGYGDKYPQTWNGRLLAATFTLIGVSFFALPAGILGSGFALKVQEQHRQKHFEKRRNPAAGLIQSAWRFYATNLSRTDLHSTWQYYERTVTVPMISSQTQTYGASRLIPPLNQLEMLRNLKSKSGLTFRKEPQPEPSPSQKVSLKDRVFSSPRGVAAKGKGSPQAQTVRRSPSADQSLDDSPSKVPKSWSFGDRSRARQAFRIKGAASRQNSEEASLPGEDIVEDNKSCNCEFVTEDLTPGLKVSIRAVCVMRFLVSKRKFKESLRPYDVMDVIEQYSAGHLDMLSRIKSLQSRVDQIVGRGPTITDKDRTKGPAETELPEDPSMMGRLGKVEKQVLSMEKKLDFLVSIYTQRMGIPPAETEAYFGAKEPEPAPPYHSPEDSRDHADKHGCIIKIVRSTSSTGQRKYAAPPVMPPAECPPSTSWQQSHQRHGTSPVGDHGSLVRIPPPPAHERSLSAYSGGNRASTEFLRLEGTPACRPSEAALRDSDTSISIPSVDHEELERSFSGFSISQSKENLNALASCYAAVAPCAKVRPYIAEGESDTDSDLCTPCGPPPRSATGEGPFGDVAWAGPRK
KCNQ2 pot baseline = further read-out of KCNQ2 pot, marked with its call; B-score; compound at 10 µM; measured here: initial fluorescence intensity artifact check;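 brightness before thallium and not channel activity; 0 = typical well and far values either way flag optical interference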
The depositor's hits bear a star. These rows are one share of the data (hit frequency here may not be typical).

SMILES	KCNQ2 pot	KCNQ2 pot baseline
COc1cc(OC)cc(C(=O)NC(=S)N2C[C@H]3C[C@H](C2)c2cccc(=O)n2C3)c1	0.08	0.31
NC12CN3CN(CN(C3)C1)C2 (tested in a mixture with another compound)	0.32	-1.2
FC(F)(F)Oc1ccc(NC2=NCCCS2)cc1	0.36	0.56
CCC(=NCc1ccco1)c1c(O)n(-c2ccc(OC)cc2)c(=O)[nH]c1=O	0.71	-0.7
CCCn1cc(CN2CCCC(C(=O)c3cccc(OC)c3)C2)c(C)n1 (stereo not given)	0.59	1.1
COC(=O)N(c1ccc(OC)cc1)P1(=S)OCCC(C)O1 (stereo not given)	0.59	0.26
CCCCNC(=O)Nc1ccc(C(O)(C(=O)OCC)C(F)(F)F)cc1 (stereo not given)	0.39	0.26
CCN1C(=O)NC(=O)/C(=C/c2cc(C)n(-c3sc(C)c(C)c3C#N)c2C)C1=O	0.06	0.84
CN(C)c1cc(N)c2c(n1)CCC2 (tested in a mixture with another compound)	2	1.3
COc1cccc(C2(C#N)CCN(C)CC2)c1	0.48	-0.25
Cc1cc(C)cc(NC2=NCCCS2)c1	0.13	-0.13
Cc1nc2c(C(=O)N3CCC4(CC3)OCCO4)cnn2c(C)c1Cc1cccc(Cl)c1	1	-0.25
O=C1C2CCN(CC2)[C@@H]1Cc1ccc2ccccc2c1O	0.18	0.79
COc1cccc(N=Nc2c(O)[nH]c(=S)[nH]c2=O)c1	0.69	0.31
CCC1CCCCN1CC(=O)c1ccc(OC(F)F)cc1 (stereo not given)	0.09	0.8
Cc1ccc(S(=O)(=O)Cc2ccc(C(=O)N3CCC4(CC3)OCCO4)o2)cc1	0.15	2.8
Cc1cccc(-n2c(O)c(C)c(=O)[nH]c2=S)c1	0.92	-1.1
O=C1CC(=O)N(c2cccc(Cl)c2)C(=O)N1	0.05	-0.14
C/C(=N\N=C(N)N)c1ccccc1	0.02	0.65
COc1ccc(N2C(=O)NC(=O)C(CCc3ccncc3)(CCc3ccncc3)C2=O)cc1	0.56	0.97
C[n+]1c(-c2ccccc2)cc(-c2ccc(Cl)cc2)cc1-c1ccccc1	1	-1.1
Cc1ccc(OCC(=O)N2CCN(Cc3ccc4c(c3)OCO4)CC2)cc1	0.71	0.43
O=C(O)C1Cc2ccccc2N2CCCC12 (stereo not given)	0.75	-0.08
NS(=O)(=O)c1ccc(N=Cc2c(O)n(C3CCCCC3)c(=O)n(C3CCCCC3)c2=O)cc1	1.9	-1.3
NC(=S)/N=C/c1c(O)[nH]c(=O)[nH]c1=O	1.3	-0.04
c1ccc(-c2nc(N3CCOCC3)s[n+]2-c2ccccc2)cc1	1.2	0.06
CCc1ccc(N2C(=O)CC(=O)NC2=O)cc1	0.32	0.3
COc1ccc(C2=NCC(=O)N(CC(=O)NCc3ccco3)c3sc4c(c32)CCCC4)cc1OC	0.9	-0.03
CC1CCCN(C(=O)CCl)C1 (stereo not given)	1.3	-0.83
O=P(c1ccccc1)(c1ccccc1)N1CCCCC1	0.68	-0.15
CCOc1ccc(C2SCC(=O)Nc3c2c(=O)[nH]n3C2CCCCCC2)cc1 (stereo not given)	0.37	-0.4
O=C1CN=C(c2ccc(Br)cc2)c2oc3ccccc3c2N1	0.78	0.18
Nc1cccc(N=Cc2c(O)n(Cc3ccc(F)cc3)c(=O)[nH]c2=O)c1	0.34	-0.51
S=C1NCCN1	0.31	0.87
C/C=C1/CC(C)C(C)(O)C(=O)OCC2CCN3CCC(OC1=O)C23 (stereo not given)	0.62	-1.4
CCS(=O)(=O)NC(C)c1nnc2n1-c1ccc(Br)cc1C(c1ccccc1Cl)=NC2 (stereo not given)	0.64	-0.04
CCOP(=O)(OCC)C(NC(=O)c1ccc(Cl)cc1)=C(Cl)Cl	1.4	-2.8
CCCCN1C(=O)C(C2c3ccccc3C(=O)N2Cc2ccccc2)C(=O)NC1=S (stereo not given)	1.4	-0.6
CC(=Nc1ccccc1N)c1c(O)n(C)c(=O)[nH]c1=O	0.1	-0.5
Cc1ccc(CCN2CC(C(=O)N3CCC4(CC3)OCCO4)CC2=O)cc1 (stereo not given)	0.05	0.41
C=C1C(=O)O[C@@H]2C[C@@H](C)[C@@H]3C=CC(=O)[C@@]3(C)[C@@H](OC(=O)CC(=O)O[C@H]3[C@@H]4C(=C)C(=O)O[C@@H]4C[C@@H](C)[C@@H]4C=CC(=O)[C@]43C)[C@H]12	3.3	0.67
CC(=O)CC(C)(C)n1c[n+](C)nn1	0.14	1.4
CCN1C[C@]2(CO)CC[C@H](OC)[C@@]34C5C[C@H]6[C@H](OC)C5[C@](O)(C[C@H]6OC)[C@@H](C(OC)C23)[C@@H]14 (stereo not given in full)	0.15	0.32
O=C(O)c1cc(Oc2ccc(C(F)(F)F)cc2Cl)ccc1[N+](=O)[O-]	0.27	0.23
CCOC(=O)/C(CCCN(CC)CC)=N\O	1.5	0.26
COc1cc(Cn2c(N)c(C(=O)NCc3ccco3)c3nc4ccccc4nc32)cc(OC)c1OC	0.79	-0.14
C=Cn1c(P(=S)(N2CCOCC2)N2CCOCC2)cc2c1CCCC2	0.05	-0.41
CNC(=O)OCCc1n(C)cc[n+]1C	0.01	-0.31
COc1ccc(C2=NCC(=S)Nc3ccc(Cl)cc32)cc1OC	0.58	-0.26
COc1ccccc1C1=NCc2nnc(CSC)n2-c2ccc(Cl)cc21	0.51	-0.39
New compounds follow:
SMILES	KCNQ2 pot	KCNQ2 pot baseline
Cc1ccsc1-c1nc(CSCC(=O)N2CCC3(CC2)OCCO3)c(C)o1	2	-0.06
CC(C)c1cccc(C(C)C)c1O	1.7	-0.33
CC(N)Cc1ccccc1Sc1ccc(O)cc1 (stereo not given)	0.46	0.46
COc1cccc(C2(O)CCN(CC(=O)Nc3nc(C)cs3)CC2)c1	0.96	-0.09
COC(=O)c1ccccc1OP1(=O)COc2ccccc2OC1	1.7	0.48
CCOc1ccc(-c2cc(C)[n+](CCO)c(-c3ccc(OCC)cc3)c2)cc1	0.49	-0.04
CCN(CC)CCN/N=C(\C)c1c(O)[nH]c(=O)[nH]c1=O	0.24	0.14
CCOC(=O)C1C(=O)NC23CCCC2C1c1ccccc1O3 (stereo not given)	0.5	0.39
CCOC(=O)c1c(NC(=O)c2c(N)n(CCCOC)c3nc4ccccc4nc23)sc2c1CCCC2	1.3	-0.98
COC(=O)C(O)(c1ccc(N(C)C(=O)c2ccc(Cl)c(Cl)c2)cc1)C(F)(F)F (stereo not given)	0.1	-0.16
Cn1ccc(NC(=O)CCl)n1	2.7	-0.62
CN1CCN(c2ccc(Cl)cc2N)CC1	1.1	-1.3
CC(C)c1oc(=O)cc2c1[C@@H](O)[C@H]1OC(=O)[C@@]3(C)C[C@@H](O)[C@@H](O)[C@@]2(C)C13 (stereo not given in full)	1.8	0.29
CN1CCN(c2ncc(C=O)s2)CC1	0.63	-0.66
CSc1nc(N2CCN(C)CC2)c2ccccc2n1	0.84	0.24
CCOC(=O)C1(CCc2ccccc2)CCN(Cc2ccc(NC(C)=O)cc2)CC1	0.33	0.13
CC(=O)NC1CC2CCC(C1)N2 (stereo not given)	1.9	0.18
c1cnc2c(c1)ccc1ncccc12	0.16	0.15
CC1(C)OC1COc1c2occc2cc2ccc(=O)oc12 (stereo not given)	1.2	-0.96
CC(=O)Nc1cc(C(=O)N2CCC3(CC2)OCCO3)ccc1S(=O)(=O)c1ccc(C)cc1	0.26	1.2
CCOP(=O)(OCC)C(NC(=O)c1ccccc1)=C(Cl)Cl	0.97	1
COc1ccc(NC(=O)N2CCC3(CC2)OCCO3)cc1	0.88	0.12
COc1ccccc1OCCCn1cc(C(C)=O)c2ccccc21	2.3	-0.61
O=C1NC(=O)N(c2ccc(Cl)cc2)C(=O)/C1=C\c1ccc(Sc2nc3ccccc3[nH]2)o1	1.1	1.3
CN(C)C(=O)Oc1ccc(OCc2nc3ccccc3[nH]2)cc1	0.19	0.55
COCCCn1c(N)c(C(=O)OCCOC)c2nc3ccccc3nc21	0.78	-0.24
CN1CCN(c2ccc([N+](=O)[O-])c(Sc3nncn3C)c2)CC1	0.2	0.4
CSc1ncc(CN2CCCC(C(=O)c3sccc3C)C2)cn1 (stereo not given)	0.09	-1.7
Clc1ccccc1CNC1CN2CCC1CC2 (stereo not given)	2.4	1.7
Cc1cccc(CN2CCN(CC(=O)N3CCC4(CC3)OCCO4)C2=O)c1	0.02	0.09

Complete entries, quoted from the list. Order of screens: KCNQ2 pot | KCNQ2 pot baseline
`CCOP(=O)(OCC)C(NC(=O)c1ccccc1)=C(Cl)Cl` is listed with 0.97 | 1
`O=C1NC(=O)N(c2ccc(Cl)cc2)C(=O)/C1=C\c1ccc(Sc2nc3ccccc3[nH]2)o1` is listed with 1.1 | 1.3
`COCCCn1c(N)c(C(=O)OCCOC)c2nc3ccccc3nc21` is listed with 0.78 | -0.24

(more compounds)
SMILES	KCNQ2 pot	KCNQ2 pot baseline
Nc1ccnn1C1CCNCC1	1.1	0.06
CCOC(=O)c1nsnc1NCCCl	0.81	-1.2
O=C(NC1CN2CCC1CC2)c1ccc(-c2ccc([N+](=O)[O-])cc2)o1 (stereo not given)	0.01	-0.24
CCCCn1c(N)c(C(=O)NCc2cccs2)c2nc3ccccc3nc21	1.7	0.23
Clc1ccc2c(c1)C(c1ccccc1Cl)=NCc1nnc(N3CCN(CCOc4ccccc4)CC3)n1-2	0.83	-0.09
COCCCN=Cc1c(O)[nH]c(=S)[nH]c1=O	0.29	-0.81
COc1ccc(NS(=O)(=O)c2ccc(OCC(=O)N3CCN(C)CC3)cc2)cc1Cl	0.71	-0.74
O=[N+]([O-])c1ccc(N2CCCC2)cc1N/N=C1\CN2CCC1CC2	3.6	-0.27
C=CCc1cc(C=C2C(=O)N(C)C(=O)N(C)C2=O)cc(OCC)c1OCc1ccccc1	0.31	-1.8
CN1C(C(=O)N2CCC3(CC2)OCCO3)=CC(c2ccc(F)cc2)=NS1(=O)=O	1.6	-2.3
C[C@@H]1CC[C@@]2(NC1)O[C@H]1C[C@H]3[C@@H]4CC=C5C[C@@H](O)CC[C@]5(C)[C@H]4CC[C@]3(C)[C@H]1[C@@H]2C	1.1	-1.3
CNC(=S)NC1CC2CCCC(C1)N2CC(C)C (stereo not given)	0.1	2.3
CC(=O)Nc1ccc([As](=O)(O)c2ccc([N+](=O)[O-])cc2)cc1	0.26	1.5
CC(=O)c1c(C)n(CCCOC(C)C)c2ccc(O)cc12	0.2	0.77
O=c1[nH]c(=S)n(CCC2=CCCCC2)c(O)c1C=NCc1cccnc1	1.2	0.08
O=C1NC(=O)C(=Cc2ccc3c(c2)OCO3)C(=O)N1	0.03	0.15
N#CC(C#N)=NNc1ccc(S(N)(=O)=O)cc1	0.14	-0.09
O=Cc1c(C(=O)O)n(Cc2ccc(F)cc2Cl)c2ccccc12	1.3	0.42
CCCNC(=O)N1[C@H]2CC[C@@H]1C(C(=O)OC)=C(c1cc3ccccc3o1)C2	0.84	-1.1
COc1ccc(O)c(C(C)(C)C)c1	0.66	0.35
CCN(CC)C(=O)c1ccc(NC(=O)CCCSc2ccccc2)cc1	1.5	-0.04
NC(=O)c1cn(C2OC(CO)C(O)C2O)c2ncnc(N)c12 (stereo not given)	0.33	-0.17
CCOC(=O)C1CCN(/C=C2/C(=O)NC(=O)N(c3cccc(C)c3C)C2=O)CC1	0.18	-0.92
COc1ccc2cc(C(=O)C3CCCN(C4CCOCC4)C3)ccc2c1 (stereo not given)	2.5	0.59
CCSP1(=S)N=C(N2CCOCC2)C(C#N)=C2CCCN21 (stereo not given)	0.7	0.85
O=C(COC(=O)Cc1ccccc1)Nc1nnc(-c2ccccc2)o1	2.1	0.92
CN1C2c3ccccc3C3C4c5ccccc5C(C31)C(C2[N+](=O)[O-])N4C (stereo not given)	0.86	0.63
CN(C)C(=O)O/N=C(\N)COc1ccc(C(C)(C)C)cc1	1.4	1.3
O=S(=O)(NC1CCCC1)OCC(Cl)(Cl)Cl	1.2	1.5
Nc1nnc(P(c2ccccc2)c2ccccc2)s1	1.2	0.99

Reprinted at random: 4 records from the list
SMILES	KCNQ2 pot	KCNQ2 pot baseline
NC(=O)c1cn(C2OC(CO)C(O)C2O)c2ncnc(N)c12 (stereo not given)	0.33	-0.17
COc1ccc2cc(C(=O)C3CCCN(C4CCOCC4)C3)ccc2c1 (stereo not given)	2.5	0.59
CN(C)C(=O)O/N=C(\N)COc1ccc(C(C)(C)C)cc1	1.4	1.3
CCN(CC)C(=O)c1ccc(NC(=O)CCCSc2ccccc2)cc1	1.5	-0.04

Further structures follow.
SMILES	KCNQ2 pot	KCNQ2 pot baseline
C=CCN1CCC2(C)c3cc(O)ccc3CC1C2C (stereo not given)	0.09	0.87
CNc1ccc2oc(C[C@H]3O[C@@]4(CC[C@H]3C)O[C@H]([C@H](C)C(=O)c3ccc[nH]3)[C@H](C)C[C@H]4C)nc2c1C(=O)O	2	5.2
Cc1nnc2ccc(-c3cccc(C(F)(F)F)c3)nn12	0.79	1.4
CN(C)CCN(CC1CCCN(Cc2ccccc2F)C1)C(=O)Cc1ccccc1F (stereo not given)	0.81	0.08
C/C=C(\C)C(=O)OC1C(C)=C2C(C1OC(=O)CCCCC)C(C)(OC(C)=O)CC(OC(=O)CCC)C1(O)C2OC(=O)C1(C)O (stereo not given)	3.2	-0.73
O=Cc1c(C(=O)O)n(Cc2ccccc2F)c2ccccc12	0.15	-0.49
O=c1nc(/C=C/c2ccc(Cl)cc2Cl)cc(C(F)(F)F)[nH]1	2.2	-2.1
CCOP(=S)(OCC)c1ccc(N(C)C)cc1	4.3	-0.63
Cc1oc2ccc(OC(=O)N(C)C)cc2c1C(=O)OC(C)C	0.12	0.97
CCC(C)/C=C(C)/C=C/C1=CC2=C(Cl)C(=O)C(C)(OC(C)=O)C(=O)C2=CO1 (stereo not given)	1.1	-2.5
Cc1ccc(/C=C2/C(=O)NC(=O)N(CCc3ccc(F)cc3)C2=O)s1	0.36	-0.23
CCN(CC)C(=O)Cn1cc(/C=C2\C(=O)NC(=O)N(c3ccccc3F)C2=O)c2ccccc21	0.02	0.31
